gsp antag: gsp mutant antagonism; gsp-mutant cells, cAMP HTRF, 30 min; control for the full effect not named in the record; hit rate 0.4% among 340,000; Potency, µM (highest dose often 76.9 µM), without a hit: top-dose activity change, negative = inhibition, hits mostly inhibitors; AID 624288; active = falling curve of any shape with a large fitted effect; inconclusive = falling curve, mostly with a smaller effect; inactive = flat or rising curve; cell line not stated here;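 further: intracellular cAMP measured with PDE inhibitor Ro 20-1724 present during compound exposure; potency means the concentration at half of the fitted maximal effect; on the % scale 0 is the no-effect control and ±100 the full control effect; nearly all actives have a fitted effect of over 65% in size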
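G418-selected cells were plated in DMEM/10% FBS for 16-24 h at 37C, then treated with compounds plus the PDE inhibitor […] (300 uM solution added) for 30 min at 37C. Intracellular cAMP was measured by HTRF after 30 min lysis at room temperature.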
TRPML1 inh: human mucolipin-1 channel inhibition. hit rate 0.02% among 390,000. TRPML1-inducible cells, Ca2+ dye fluorescence, FDSS; active compounds read low; inhibition of EC80 agonist-evoked calcium signal. Q9GZU1. activity change, negative = inhibition, % (no concentration beside the values); in the data active means activity change below about -50%; inconclusive means about -30% to -50%; inactive means above about -30%;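 further: stimulus is agonist 54-4 at its EC80 concentration; on the % scale 0 is the no-effect control and ±100 the full control effect; compound concentration not given in the record; the text of the record puts the active cut at -80%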
Target sequence (Q9GZU1 whole entry, looked up): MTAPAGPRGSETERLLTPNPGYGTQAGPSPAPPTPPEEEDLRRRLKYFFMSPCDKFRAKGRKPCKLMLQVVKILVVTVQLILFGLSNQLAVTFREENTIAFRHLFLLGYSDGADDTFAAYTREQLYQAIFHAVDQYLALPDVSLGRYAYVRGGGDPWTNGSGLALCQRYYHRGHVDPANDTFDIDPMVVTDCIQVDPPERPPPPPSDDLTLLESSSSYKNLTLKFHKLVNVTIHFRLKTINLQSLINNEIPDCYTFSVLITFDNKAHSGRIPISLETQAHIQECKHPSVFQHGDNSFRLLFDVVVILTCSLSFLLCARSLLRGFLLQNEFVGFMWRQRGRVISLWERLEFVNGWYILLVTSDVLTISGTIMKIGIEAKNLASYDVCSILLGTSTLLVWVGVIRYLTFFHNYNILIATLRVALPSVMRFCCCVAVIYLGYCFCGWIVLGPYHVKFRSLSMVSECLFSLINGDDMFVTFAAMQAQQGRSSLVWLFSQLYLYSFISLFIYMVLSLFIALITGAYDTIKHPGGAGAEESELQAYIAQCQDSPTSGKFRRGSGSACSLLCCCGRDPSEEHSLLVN
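Calcium fluorescence in TRPML1-DL cells induced overnight with Tet: a 110 s read after compound pin addition, then a 110 s antagonist read after challenge with 54-4 at 4 uM final (EC80).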
Menin MLL FP FL: inhibitors of human menin-MLL interaction, wild-type MLL peptide. Fluorescence polarization, fluorescein-MLL peptide displacement from menin. FP activity change, % at 61.4 µM. AID 1766. 290,000 tested, under 10 active; inconclusive = falling polarisation curve, or a change in total fluorescence; inactive = total fluorescence flat and polarisation flat or rising; no compound was filed as active; the % refers to the polarisation; negative = inhibition;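 further: % of control where 0% means no effect; inhibitors lower the polarisation; unlabelled MLL peptide was the positive control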
ClpP mod: qHTS Assay for Activators of ClpP. purified B. subtilis ClpP, FRET peptide cleavage, 20 min. ATP-dependent Clp protease proteolytic subunit (Bacillus subtilis (strain 168)), P80244. hit rate 1.9% among 340,000. AID 651965, 2013. Potency, µM (series often up to 57.5 µM), for the others: at the highest dose activity change, negative = active; active = well fitted falling curve with a large enough effect; inconclusive = small, poorly fitted or top-dose-only effect; inactive = no such curve, though single readings can be large or run the other way; further: potency means the concentration at half of the fitted maximal effect; the source files actives as falling curves though it sought activators and does not explain the sign; nearly all actives have a fitted effect of over 65% in size; many hits overshoot -100%
Target sequence (P80244 whole entry, looked up): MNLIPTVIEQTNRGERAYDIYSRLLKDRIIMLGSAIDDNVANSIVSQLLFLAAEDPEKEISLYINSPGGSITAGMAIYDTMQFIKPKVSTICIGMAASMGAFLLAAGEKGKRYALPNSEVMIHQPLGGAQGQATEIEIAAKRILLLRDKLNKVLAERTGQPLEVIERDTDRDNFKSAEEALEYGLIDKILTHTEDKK
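Buffer: 100 mM Tris/HCl pH8, 100 mM KCl, 0.05% low protease BSA, 2.5% glycerol, 0.01% Tween-20. ClpP 10 microg/mL final; 20 min RT; delta FRET normalized to ADEP and DMSO controls.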
TRPML1 ag: agonists of human TRPML1 channel; TRPML1-expressing cells, Ca2+ dye fluorescence, FDSS; host cell line not named in the record; reference of the full effect not given here; activation, % (no concentration beside the values); Q9GZU1; hit rate 0.12% among 410,000; in the data active = activation above about 50%; inconclusive = about 30% to 50%; inactive = below about 30%; further: 0% is about no effect; the text of the record puts the active cut at 80%
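Agonist activity was taken from a 110 s kinetic Ca2+ dye read on the FDSS after pinning compounds onto TRPML1-DL cells. The cells were seeded at 1,500/well with Tet inducer, incubated about 16 h, then dye-loaded at room temperature.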
gsp agonist: activates gsp, the McCune-Albright syndrome mutation; gsp mutant cells, cAMP HTRF, 30 min; control for the full effect not named in the record; Potency, µM (titrated, usually from 76.9 µM), inactives show top-dose activation (cAMP increase), most hits filed as activators; hit rate 0.13% among 340,000; AID 624287; active = well fitted activation curve with a large enough effect; inconclusive = small, poorly fitted or top-dose-only effect, or another doubt; inactive = no such curve, though single readings can be large or run the other way; cell line not stated here;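 further: phosphodiesterase inhibitor Ro 20-1724 added with compounds to block cAMP breakdown; potency means the concentration at half of the fitted maximal effect; nearly all actives have a fitted effect of over 60% in size; about a fifth of the inactives were tested at one dose only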
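Cells stably selected in G418 were plated at 2000/well, grown 16-24 hr, then given compounds in DMSO with the PDE inhibitor […] (300 uM solution added) for 30 min at 37C; cAMP was read by HTRF.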
An asterisk follows results filed as active; ? = inconclusive; . = no result given; & = joins results of further samples; [ ] = dose if it differs, or a comment.

SMILES	gsp antag	TRPML1 inh	Menin MLL FP FL	ClpP mod	TRPML1 ag	gsp agonist
Cc1ccc(Nc2ncccc2C(N)=O)cc1	-5%	11	4.0	-12%	-0.6	-6%
Cc1c(C)c2ccc(OCC(=O)N[C@@H](Cc3c[nH]c4ccccc34)C(=O)O)cc2oc1=O	16%	.	3.5	?	.	.
CCc1ccc(NC(=O)c2ccc(NC3=NC4CS(=O)(=O)CC4S3)cc2)cc1 (centres undefined)	8%	15	.	-0.1%	0.6	8%
COc1ccc(C(=O)Nc2cccc3c2C(=O)NC3=O)cc1S(=O)(=O)N1CCOCC1	21%	1	0.9	-10.0%	-0.1	19%
Cc1cccc(C(=O)OCc2cc(=O)n3ccsc3n2)c1	.	-25	.	-22%	0.3	.
Cc1ccc(NC(=O)CSc2ccc(-c3cccnc3)nn2)cc1Cl	-4%	-6	-0.7	0.2%	1.0	?
COc1ccc(C(=O)N2CCN(C(=O)COc3ccccc3)CC2)cc1OC	.	49	.	-0.4%	2.1	.
CCSc1nnc(NC(=O)c2c(C)noc2C)s1	0%	-2	-2.0	-4.2%	0.8	-36%[inhibitor]
CC(C)N1CC(C(=O)Nc2ccccc2)CC1=O (centres undefined)	7%	-3	7.0	-12%	-0.6	23%
O=C(O)CCN1C(=O)NC2(CCCC2)C1=O	10%	15	4.0	0.7%	-0.3	0%
CCN(CC)S(=O)(=O)c1ccc(OC)c(NC(=O)C2CC(=O)N(c3ccc(C)cc3)C2)c1 (centres undefined)	-13%	11	0.9	.	-0.5	0%[15.4 µM]
COc1ccccc1/C=C(/C#N)C(=O)O	-4%	15	-1.1	-4.6%	-0.3	?
O=C(C1=NN[C@@H]2C(=O)N(c3cccc(F)c3)C(=O)[C@H]12)c1cnccn1	9%	13	14	.	0.7	-3%[15.4 µM]
COc1ccc(CNC(=O)CCSCc2cccc(Cl)c2)cc1	-3%	-9	-0.5	0.8%	0.7	-29%
Cc1cc(C)nc(N(C#N)CN2C(=O)c3ccccc3S2(=O)=O)n1	-6%	2	0.1	31%	-0.8	-32%[inhibitor]
COc1ccc(C(CC(=O)NCC(OC)OC)NS(=O)(=O)c2ccc(Cl)cc2)cc1 (centres undefined)	7%	-14	-0.5	.	-0.4	-17%[15.4 µM]
CS(=O)(=O)N1CCN(c2ccc(NC(=O)c3cccnc3Cl)cc2)CC1	-5%	10	-1.7	0.4%	-0.3	?
CC1(C)CC(=O)C2=C(C1)C(c1cn(-c3ccccc3)nc1-c1ccccc1)C(C#N)=C(N)O2 (centres undefined)	-15%	-3	9.8	1.6%	0.0	4%
CCc1nc(N2CCN(S(=O)(=O)c3ccc(Br)cc3)CC2)c2c(C)c(C)sc2n1	-15%	5	.	-1.8%	0.7	-4%
CCNC(=S)Nc1ccc(OC(F)(F)F)cc1	11%	27	-4.9	-15%	1.2	-27%
COc1ccc(CNC2CCN(Cc3ccccc3)CC2)cc1	14%	-11	-0.4	-3.2%	0.0	-33%
CCOc1cc(-c2ccc(OC(=O)c3ccc(OC)cc3)c(OC)c2)cc(=O)c2c(C)oc(C)c12	.	-2	.	-0.2%	0.0	.
COc1cc(OC)cc(C(=O)NC(C(=O)NNC(=O)c2ccc(C)cc2)C(C)C)c1 (centres undefined)	7%	0	.	-8.8%	0.1	27%
Cn1c(CN2CCCCC2)nc2cc([N+](=O)[O-])ccc21	8%	75	8.0	.	-1.3	-7%[15.4 µM]
COc1cc(NC(=O)c2ccco2)c(OC)cc1NC(=O)CSc1ncc(-c2ccc(F)cc2)[nH]1	-2%	7	3.9	20%	5.5	-28%
OC(COCCOc1ccc(Br)cc1)CN1CCCCC1 (centres undefined)	19%	-15	-3.2	1.0%	-0.4	-2%
COc1ccc(CCN(C)C(=O)CNC(=O)Cc2cccc3ccccc23)cc1OC	7%	-17	.	-1.2%	-0.3	-1%[15.4 µM]
O=C(O)/C(=C\c1ccccc1OC(F)F)c1ccc(-c2ccccc2)cc1	-3%	25	.	0.7%	1.0	-5%[15.4 µM]
COc1cc(OC)cc(C(=O)NC2CCCCCCC2)c1	1%	0	-4.8	1.2%	0.3	-3%[15.4 µM]
CCOC(=O)CCSc1nc(-c2ccccc2)cc(C(F)(F)F)n1	-5%	12	-0.9	?	0.8	19%
CCOc1ccccc1C(=O)Nc1nnc(SCC(=O)N2CCOCC2)s1	-14%	-1	2.5	.	0.5	1%[15.4 µM]
O=C(/C=C\c1ccc(-c2cccc([N+](=O)[O-])c2)o1)N1CCOCC1	-10%	2	0.9	.	0.3	17%
Cc1ccc(NC2c3ccccc3C(=O)N2c2cccnc2)cc1 (centres undefined)	-13%	7	0.2	.	1.4	12%[15.4 µM]
Cc1ccc(C)n1-n1cnc2sc(-c3ccccc3)cc2c1=O	?	27	-0.3	0.2%	-0.3	-26%
Cc1cc(C)nc(/N=C2\NC(=O)CC(C(=O)O)N2c2ccc(C)c(C)c2)n1 (centres undefined)	.	18	-0.9	.	-0.1	-2%[15.4 µM]
COc1cc(S(=O)(=O)Nc2ccc3nc(C)sc3c2)ccc1NC(C)=O	-4%	13	.	-2.5%	-0.1	?

A draw from above in order of length of the SMILES, highest first:
SMILES	gsp antag	TRPML1 inh	Menin MLL FP FL	ClpP mod	TRPML1 ag	gsp agonist
Cc1ccc(C)n1-n1cnc2sc(-c3ccccc3)cc2c1=O	?	27	-0.3	0.2%	-0.3	-26%
OC(COCCOc1ccc(Br)cc1)CN1CCCCC1 (centres undefined)	19%	-15	-3.2	1.0%	-0.4	-2%
O=C(O)CCN1C(=O)NC2(CCCC2)C1=O	10%	15	4.0	0.7%	-0.3	0%

The list continues:
SMILES	gsp antag	TRPML1 inh	Menin MLL FP FL	ClpP mod	TRPML1 ag	gsp agonist
CC(C)Cc1ccc(C(C)C(=O)N2CCOCC2)cc1 (centres undefined)	1%	30	-1.9	0.1%	0.6	10%
Cc1cc(NC(=O)c2ccccc2F)ccc1-c1nc2ccccc2s1	.	0	.	-26%	0.2	.
Cc1ccccc1N1C(=O)C2C3C=CC(CC3)C2C1=O (centres undefined)	8%	4	-4.1	0.5%	-0.2	2%[15.4 µM]
COc1ccc(C(=O)c2c(C(F)(F)F)oc3c2C(=O)c2ccccc2C3=O)cc1OC	9%	11	-0.7	-0.6%	1.4	-32%[inhibitor]
Cc1ccc(S(=O)(=O)NCCc2cccs2)cc1	11%	-4	-6.9	-1.0%	4.3	4%
O=C(Nc1cccc(F)c1)C1CC(=O)N(c2ccc(Cl)cc2)C1 (centres undefined)	3%	-3	-1.4	-0.7%	2.2	21%
COc1ccc(CNC(=O)C(C)N(C)Cc2cccc(F)c2)cc1 (centres undefined)	8%	-9	5.8	2.4%	0.3	-13%
CC1=NCCN1CCNC(=O)Nc1cc(C)cc(C)c1	9%	19	0.6	.	-0.2	3%
O=C(COc1ccc(Cl)cc1)NCC(c1cccs1)S(=O)(=O)c1ccc(F)cc1 (centres undefined)	.	16	.	-1.2%	2.1	.
C#CCOc1c(Br)cc(/C=C2/C(=O)ON=C2C)cc1OC	-1%	30	-10	.	1.0	-2%
COc1ccc(CNC(=O)CSc2nc3ccccc3n2C(C)=O)cc1	-3%	4	1.4	1.6%	-0.9	?
CSCCC(NC(=O)OC(C)(C)C)C(=O)Oc1ccc2c(=O)c(-c3ccc4c(c3)OCCO4)coc2c1 (centres undefined)	?	-3	2.3	8.7%	-0.8	-3%
Cc1ccc(N(CC(=O)NCC2CCCO2)C(=O)CNS(=O)(=O)c2ccc(Cl)cc2)cc1 (centres undefined)	-3%	14	.	.	0.5	-6%[15.4 µM]
O=C(CCS(=O)(=O)c1nc(-c2cccs2)cc(C(F)(F)F)n1)Nc1cc(Br)ccc1O	.	25	.	4.0%	1.8	.
CC(C)Cn1cc(C(=O)N2CCN(c3cccc(Cl)c3)CC2)c2c3ccccc3n(C)c2c1=O	.	1	.	3.9%	2.9	.
O=C1CCN(Cc2cccnc2)CCN1[C@H](CO)Cc1ccccc1	15%	2	2.5	0.5%&-2.7%	-0.5&20	.
CC(C)(C)c1nnc2sc(SCC(=O)NCc3ccco3)nn2c1=O	5%	24	.	0.9%	-0.3	18%
Cc1ccc(N2CC(NC(=O)c3ccc(S(=O)(=O)N4CCOCC4)cc3)CC2=O)cc1C (centres undefined)	.	-22	.	0.1%	-0.3	.
COC(=O)[C@]1(C)N[C@H](CN(C)S(=O)(=O)c2ccc(F)cc2)[C@@H]2C(=O)N(Cc3ccccc3)C(=O)[C@@H]21	0%	-11	.	1.3%	-0.9	.
O=C(CCC(=O)N1CC2CCCN2c2ccccc21)NCc1ccccc1 (centres undefined)	.	-14	.	-3.2%	0.7	.
CNC(=O)c1ccccc1Sc1ccccc1C#N	0%	19	0.1	.	0.9	-3%[15.4 µM]
Cn1ccc(NC(=O)Nc2ccc(Cl)cc2)n1	-4%	-4	-0.4	.	0.4	-6%[15.4 µM]
NNc1nc2ccc(F)cc2s1	-44%	0	1.8	-0.9%	-0.3	8%
O=C(NC1CCN(S(=O)(=O)c2ccc(F)cc2)CC1)c1ccccc1	-1%	-1	-2.5	.	-1.0	0%
CCOC(=O)N1CCN(C(=O)c2c[nH]c3ccc(S(=O)(=O)N(C)c4ccc(OCC)cc4)cc3c2=O)CC1	0%	2	.	-22%	-0.6	3%
CN(C)c1ncnc2c1ncn2CCn1cnc2c(N(C)C)ncnc21	1%	-4	.	.	-0.5	?
O=c1c2ccccc2n(Cc2cccc(F)c2)c(=O)n1Cc1ccccc1Cl	.	1	.	-12%	1.6	.
O=C(COc1ccccc1)Nc1ccc(NC(=O)c2ccco2)cc1	-4%	3	-5.1	1.2%	-0.8	1%
COc1cccc(-c2nc(-c3cccs3)no2)c1	4%	-6	-0.2	.	-1.2	1%[15.4 µM]
COc1ccc(C(c2nnnn2C2CCCC2)N2CCC(C(N)=O)CC2)c(OC)c1 (centres undefined)	-1%	-14	0.0	3.9%	-0.5	-28%
CC(C)c1cccc(C(C)C)c1NS(=O)(=O)c1cccs1	.	-5	.	0.8%	-1.0	.
O=c1c2ccccc2c(C=NCCO)c(O)n1-c1ccccc1	6%	29	-0.1	-5.5%	0.0	-4%
CN1C2CCC1CC(NC(=O)c1cc(Cl)cc3[nH]cnc13)C2 (centres undefined)	16%	0	3.6	-0.8%	-0.6	0%[15.4 µM]
COc1ccc(CC(=O)Nc2ccc(-c3nc4ccccc4s3)cc2Cl)cc1	.	0	.	4.6%	0.5	.
O=C(OCCn1c(=S)sc2ccccc21)c1ccccc1	-2%	-4	.	-7.0%	4.7	-2%
COC(=O)c1sc(-c2ccccc2)cc1NC(=O)c1cc(OC)cc(OC)c1	11%	-5	-3.3	?	-0.3	-16%
COc1ccc(/C=C(\NC(=O)c2ccco2)C(=O)NCCc2nc3ccccc3[nH]2)cc1	9%	18	1.7	-0.9%	0.1	0%

Source: PubChem BioAssay
